# Source: PubChem BioAssay (National Center for Advancing Translational Sciences (NCATS))
# gsp antag = antagonists of gsp mutant (McCune-Albright syndrome); Potency, µM (series often up to 76.9 µM), for the others: at the top dose activity change, negative = inhibition, actives largely listed as inhibitors; 0.4% of 340,000 active; gsp-mutant cells, cAMP HTRF, 30 min; control for the full effect not named in the record; active = falling curve of any shape with a large fitted effect; inconclusive = falling curve, mostly with a smaller effect; inactive = flat or rising curve; cell line not stated here;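 further: intracellular cAMP measured with PDE inhibitor Ro 20-1724 present during compound exposure; potency means the concentration at half of the fitted maximal effect; on the % scale 0 is the no-effect control and ±100 the full control effect; nearly all actives have a fitted effect of over 65% in size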
#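 G418-selected cells were plated in DMEM/10% FBS for 16-24 h at 37C, then treated with compounds plus the PDE inhibitor […] (300 uM solution added) for 30 min at 37C. Intracellular cAMP was measured by HTRF after 30 min lysis at room temperature.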
# gsp agonist = agonists of gsp mutant (McCune-Albright syndrome) | AID 624287 | Potency, µM (titrated, usually from 76.9 µM), without a hit: at the highest dose activation (cAMP increase), usual class: activators | 0.13% of 340,000 active | gsp mutant cells, cAMP HTRF, 30 min; control for the full effect not named in the record; active = well fitted activation curve with a large enough effect; inconclusive = small, poorly fitted or top-dose-only effect, or another doubt; inactive = no such curve, though single readings can be large or run the other way; cell line not stated here;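 further: phosphodiesterase inhibitor Ro 20-1724 added with compounds to block cAMP breakdown; potency means the concentration at half of the fitted maximal effect; nearly all actives have a fitted effect of over 60% in size; about a fifth of the inactives were tested at one dose only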
#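 Cells stably selected in G418 were plated at 2000/well, grown 16-24 hr, then given compounds in DMSO with the PDE inhibitor […] (300 uM solution added) for 30 min at 37C; cAMP was read by HTRF.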
# TRPML1 agonist = activates the human TRPML1 channel | activation, % (concentration not given with the values) | 0.12% of 410,000 active | Q9GZU1 | AID 624414 | TRPML1-expressing cells, Ca2+ dye fluorescence, FDSS; host cell line not named in the record; reference of the full effect not given here; in the data active = activation above about 50%; inconclusive = about 30% to 50%; inactive = below about 30%; further: 0% is about no effect; the text of the record puts the active cut at 80%
# Target sequence (Q9GZU1 whole entry, looked up): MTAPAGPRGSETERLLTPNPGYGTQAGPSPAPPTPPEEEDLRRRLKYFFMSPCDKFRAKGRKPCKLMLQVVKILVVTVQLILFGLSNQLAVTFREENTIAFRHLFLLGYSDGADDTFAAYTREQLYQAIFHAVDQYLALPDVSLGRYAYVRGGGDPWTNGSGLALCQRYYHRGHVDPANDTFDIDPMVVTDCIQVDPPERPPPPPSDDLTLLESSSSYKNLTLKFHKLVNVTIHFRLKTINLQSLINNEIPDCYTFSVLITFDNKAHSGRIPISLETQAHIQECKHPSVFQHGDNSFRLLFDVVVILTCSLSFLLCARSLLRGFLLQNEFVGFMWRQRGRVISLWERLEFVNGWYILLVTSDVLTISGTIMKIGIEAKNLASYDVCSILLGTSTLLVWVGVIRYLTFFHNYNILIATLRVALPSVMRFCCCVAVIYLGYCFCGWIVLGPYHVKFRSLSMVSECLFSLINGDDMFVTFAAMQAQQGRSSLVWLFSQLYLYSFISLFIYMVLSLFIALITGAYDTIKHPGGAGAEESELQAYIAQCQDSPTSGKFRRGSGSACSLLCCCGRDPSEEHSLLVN
#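 Tet-induced TRPML1-DL cells, 1,500 per well, cultured overnight, were loaded with a no-wash Ca2+ dye for 45–90 min. Calcium fluorescence was recorded on the FDSS for 110 s after compound addition, before the EC80 agonist (4 uM 54-4) was added.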
# ClpP mod = qHTS Assay for Activators of ClpP | 1.9% of 340,000 active | ATP-dependent Clp protease proteolytic subunit (Bacillus subtilis (strain 168)), P80244 | Potency, µM (highest dose often 57.5 µM), for inactives: top-dose activity change, negative = active | purified B. subtilis ClpP, FRET peptide cleavage, 20 min; active = well fitted falling curve with a large enough effect; inconclusive = small, poorly fitted or top-dose-only effect; inactive = no such curve, though single readings can be large or run the other way; further: potency means the concentration at half of the fitted maximal effect; the source files actives as falling curves though it sought activators and does not explain the sign; nearly all actives have a fitted effect of over 65% in size; many hits overshoot -100%
# Target sequence (P80244 whole entry, looked up): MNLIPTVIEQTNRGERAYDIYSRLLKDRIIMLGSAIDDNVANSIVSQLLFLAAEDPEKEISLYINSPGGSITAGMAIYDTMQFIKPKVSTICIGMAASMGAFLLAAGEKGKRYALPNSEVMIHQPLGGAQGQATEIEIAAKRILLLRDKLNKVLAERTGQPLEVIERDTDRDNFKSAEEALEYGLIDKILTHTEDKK
#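 ClpP 10 microg/mL final, pH 8 Tris/KCl buffer with BSA, glycerol, Tween-20; compound pinned in; FRET-FV substrate; RT 20 min; Ex320/Em430; ΔFRET vs ADEP 5.8 microM, DMSO, no enzyme.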
# TRPML1 inh = blocks the human TRPML1 channel; AID 624415; TRPML1-inducible cells, Ca2+ dye fluorescence, FDSS; hits give low values; inhibition of EC80 agonist-evoked calcium signal; 0.02% of 390,000 active; activity change, negative = inhibition, % (test concentration not listed); Q9GZU1; in the data active means activity change below about -50%; inconclusive means about -30% to -50%; inactive means above about -30%;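 further: stimulus is agonist 54-4 at its EC80 concentration; on the % scale 0 is the no-effect control and ±100 the full control effect; compound concentration not given in the record; the text of the record puts the active cut at -80%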
#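 Tet-induced TRPML1-DL cells loaded with Ca8 no-wash calcium dye were read kinetically on FDSS. Compound addition was followed by EC80 agonist 54-4 (4 uM final); inhibition was read over 110 s.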
# Menin MLL FP FL = menin-MLL binding inhibition, fluorescein peptide; FP activity change, % at 61.4 µM; 290,000 tested, under 10 active; AID 1766; Fluorescence polarization, fluorescein-MLL peptide displacement from menin; inconclusive = falling polarisation curve, or a change in total fluorescence; inactive = total fluorescence flat and polarisation flat or rising; no compound was filed as active; the % refers to the polarisation; negative = inhibition;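 further: % of control where 0% means no effect; inhibitors lower the polarisation; unlabelled MLL peptide was the positive control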
# Active calls of the source: *; u = inconclusive; x = not tested or not shown; & = joins results of further samples; [ ] = another dose, or the depositor's remark.
SMILES,gsp antag,gsp agonist,TRPML1 agonist,ClpP mod,TRPML1 inh,Menin MLL FP FL
CC(C(=O)NCc1cccc(Cl)c1)N1C(=O)c2ccccc2C1=O (stereo not drawn),4.3%,-1.6%,1.3,x,1.7,7.4
COc1cccc(/C=C/C(=O)OCC(=O)NCc2ccco2)c1OC,1.2%,-39.0%[inhibitor],-0.4,x,4.7,-0.5
CCOc1ccc(NC(=O)CN(C)C(=O)CSCc2c(C)noc2C)cc1OCC,-5.8%,-10.3%[15.4 µM],-0.6,x,3.0,x
Cc1cc(C)c(S(=O)(=O)N2CCN(C(=O)N(C)C)CC2)c(C)c1,5.5%,-34.7%[inhibitor],0.1,x,-2.1,1.1
COc1cccc(-c2nc(N3CCN(C)CC3)c3ccccc3n2)c1O,-3.9%,12.4%,0.0,x,2.1,-5.2
CC(C)OCCCn1c(=NC(=O)c2ccncc2)c(C#N)cc2c(=O)n3ccccc3nc21,11.1%,16.9%,0.0,-28.9%,5.3,u
CCCN(CCC)CC(O)COc1ccc([N+](=O)[O-])cc1 (stereo not drawn),2.4%,-4.4%,2.2,-0.4%,6.0,0.3
Cn1c(=O)[nH]c(=O)c2c1nc(Sc1ncccn1)n2CCCc1ccccc1,-3.1%,u,0.0,-1.0%,14.0,-0.3
COc1cc(CN2CCC(C(=O)N3CCN(c4ccccc4F)CC3)CC2)cc(OC)c1OC,9.8%,-4.8%,0.1,-4.6%,-1.0,6.8
Cc1ccc(NC(=O)c2nnn(CC(=O)Nc3ccc4c(c3)OCO4)c2N)cc1C,-0.7%,12.4%,-0.1,-18.5%,9.6,-4.5
O=C(CNC(=O)c1ccc(Br)o1)NCc1ccc(Cl)cc1Cl,u,29.6%,0.6,0.4%,-7.0,x
CC(C)CNC(=O)CCSc1nc(-c2ccc3c(c2)OCO3)cc(C(F)(F)F)n1,x,x,3.3,4.0%,8.2,x
C=C(C)CSc1nnc([C@@H](NC(=O)OC(C)(C)C)C(C)CC)o1 (stereo partly drawn),11.9%,0.2%,0.8,1.1%,16.0,2.1
COc1cc(C(=O)OCn2nnc3ccccc3c2=O)cc(OC)c1OC,10.7%,20.3%,3.1,0.0%,-5.4,1.1
O=C(C1=C[C@@H](c2ccccc2)C[C@@H](OCc2ccc(CO)cc2)O1)N1CCCCCCC1,-17.3%,x,1.1,-2.3%,4.3,6.3
Cn1c(COc2ccc3ccccc3c2)nnc1SCC(=O)OC1CCCCC1,-22.2%,19.0%,3.0,-2.9%,22.8,1.6
Oc1ccc(N2CCN(Cc3ccc(OCCCN4CCCCC4)cc3)CC2)cc1,1.7%,-14.5%,0.7,x,-6.6,-4.9
O=C(NCc1ccc(F)cc1)NC(=O)c1ccc(Cl)cc1,11.6%,2.9%,0.8,1.2%,-5.4,x
CCNC(=S)Nc1ccc(-c2nc3ccccc3[nH]2)cc1,-4.6%,-2.3%[15.4 µM],-1.6,1.0%,-13.8,0.2
O=C(O)Cc1ccccc1C(=O)O,11.2%,5.4%,0.6,-1.2%,10.8,1.5
Clc1ccc(CSc2ccc(-c3ccccn3)nn2)cc1,-6.9%,-8.7%[15.4 µM],-0.3,x,1.2,-0.7
COc1cccc(NC(=O)c2ccc3c(c2)OCO3)c1,-3.8%,-26.0%,-0.2,-0.3%,-1.9,0.2
COC(=O)CSc1nc(-c2ccc(F)cc2)cc(C(F)(F)F)n1,-22.7%,9.6%,3.1&3.2,-1.0%&-6.9%,-11.6&-1.3,-0.9
CCOC(=O)c1c(C)c(C(=O)NCc2ccc3c(c2)OCO3)c(C)n1CC,-0.9%,0.2%,1.1,0.3%,-10.8,-2.2
O=C(NCc1ccco1)c1ccc(Cl)cc1[N+](=O)[O-],7.5%,-31.9%,0.9,0.7%,46.2,-1.2
SMILES,gsp antag,gsp agonist,TRPML1 agonist,ClpP mod,TRPML1 inh,Menin MLL FP FL
CN1/C(=C\C(=O)COC(=O)CNC(=O)c2ccc3ccccc3c2)C(C)(C)c2ccccc21,-23.7%,u,5.2,-17.7%,-3.3,16.5
CN(c1ccccc1C(=O)NCc1ccccn1)S(C)(=O)=O,-3.1%,-19.6%,-0.7,-0.2%,-7.6,7.0
Cc1occc1C(=O)Nc1cccnc1,9.1%,u,-0.1,-0.2%,-8.4,-6.4
O=C(NCc1ccccc1)N1CCN(c2ccccc2)CC1,1.4%,-21.4%,-0.4,x,-7.5,-1.5
CCOc1ccc(OCc2ccc(C(=O)Nc3cccc(C)n3)o2)cc1,-11.8%,-10.8%,2.5,-6.8%,6.4,1.5
O=C(COC(=O)Cn1cnc2ccccc2c1=O)Nc1ccccc1Sc1ccc(Cl)cc1,-26.9%,9.6%,3.9,-1.1%,-18.5,8.4
CCCCCCCCn1ccc(=N)cc1,10.4%,-3.1%[15.4 µM],-0.6,u,-5.4,3.1
O=C(Nc1ccccc1)N(C1=NCCCCS1)c1cccc2ccccc12,3.1%,2.2%,-0.6,-27.9%,-13.5,-1.3
Cc1ccnc(NC(=O)CNC(=O)c2ccc(Br)o2)c1,12.3%,-13.8%[15.4 µM],0.9,x,-16.7,x
Cc1cc(Nc2c(C)n(C)n(-c3ccccc3)c2=O)n2c(nc3cc(F)c(F)cc32)c1C#N,5.6%,12.1%,-0.5,u,15.0,u
N/C(=N\OC(=O)CCC1CCCC1)c1cccnc1,15.2%,16.9%,0.4,-1.4%,-20.2,0.3
O=C1c2ccccc2C(=O)N1CCCc1cn(C[C@H]2CC[C@H](Cn3cc(CCCN4C(=O)c5ccccc5C4=O)nn3)O2)nn1,-19.9%,x,-0.2,-2.3%,-10.3,x
Cc1ccc(S(=O)(=O)N2CCCC(c3nnc4n3-c3ccccc3SC4)C2)cc1 (stereo not drawn),-10.4%,u,-0.4,-1.3%,31.8,3.3
Cc1cc(N2CCN(c3ccccc3)CC2)nc(NCc2ccccc2)n1,6.6%,-19.0%,-1.1,-0.9%,-9.5,3.1
COc1ccc(OC)c(C2NC(=O)NC(C)=C2C(=O)OC2CCCCC2)c1 (stereo not drawn),-11.5%,30.3%[15.4 µM],-0.5,0.5%,-1.1,2.3
Cc1ccc(CSc2nc3ccsc3c(=O)n2CCC(C)C)cc1,x,x,3.3,-1.5%,21.6,x
CCN(CC)S(=O)(=O)c1ccc(C(=O)OCC(=O)NCCN2C(=O)CSC2=O)cc1,0.3%,-34.5%[inhibitor],0.8,-0.7%,6.6,-1.0
CN(C)S(=O)(=O)c1ccc(N=Cc2c(C(F)(F)F)[nH][nH]c2=O)cc1,9.3%,-6.6%,-0.4,-1.1%,7.4,0.2
O=C(CN1C(=O)c2ccccc2S1(=O)=O)NCCSCc1cccc(Cl)c1,-4.3%,-5.1%[15.4 µM],3.6,x,13.7,-2.9
Cc1cc(Nc2cccc(F)c2)n2ncnc2n1,-1.1%,20.9%,0.9,-1.0%,5.0,-0.6
Cc1ncsc1C(=O)N1N=C2/C(=C/c3ccccc3)CCCC2C1c1ccccc1 (stereo not drawn),-20.4%,0.0%,0.2,35.5µM*,-17.9,3.5
COc1cccc(/C=N/NC(=O)CN(C2=NS(=O)(=O)c3ccccc32)c2ccccc2)c1,-0.8%,1.5%,3.5,11.9%,3.5,x
Cc1ccc(SCC(=O)OCC(=O)NCCc2ccccc2)cc1C,7.6%,-10.9%,5.4,1.7%,16.1,x
O=C1NC2C(NC(=O)N2C2CCCCC2)N1C1CCCCC1 (stereo not drawn),6.8%,-40.4%[inhibitor],-0.2,-0.3%,13.3,0.4
COc1cccc(C(c2c(C)[nH]n(-c3ccccc3)c2=O)c2c(C)[nH]n(-c3ccccc3)c2=O)c1O,u,-3.6%,0.6,-1.7%,22.2,-1.5
SMILES,gsp antag,gsp agonist,TRPML1 agonist,ClpP mod,TRPML1 inh,Menin MLL FP FL
Cc1ccc(C(=O)OCC(=O)Nc2c(C)nn(-c3ccccc3)c2C)c(O)c1,x,-63.0%[inhibitor],-0.7,-1.5%,-4.2,x
CCC1(C)NC(=O)N(CC(=O)Nc2sc3c(c2C(N)=O)CCC3)C1=O (stereo not drawn),-6.9%,-25.6%,-0.1,-8.7%,2.3,3.8
COc1ccc(NC(=O)Cn2nc(C(F)(F)F)c3c2CCCC3)cc1OC,-18.6%,-0.3%,-0.5&1.3,0.7%&0.1%,35.9&-5.9,8.5
CCOC(=O)Oc1ccc(C(=O)OCCCN(C)C)cc1OC,7.1%,-28.7%,1.2,-1.9%,1.9,3.4
CC(=O)N1CCCN(Cc2cn(-c3ccc(C)cc3)nc2-c2ccc(F)cc2)CC1,-23.5%,-2.9%,0.3,x,67.3,-1.8
CC1CCN(C(c2ccc(N(C)C)cc2)c2nnnn2C(C)(C)C)CC1 (stereo not drawn),-1.9%,-38.4%,-0.7,0.5%,18.0,5.2
COc1ccc(/C=N/NC(=O)C(=O)NCc2cccnc2)cc1OC,0.5%,0.0%,-0.2,-4.4%,15.7,-0.4
C=C[C@@]1(C)CC(=O)[C@]2(O)[C@@]3(C)[C@@H](O)CCC(C)(C)[C@@H]3[C@H](O)[C@H](OC(C)=O)[C@@]2(C)O1,39.3%,x,-0.6,0.2%,-2.8,2.8
CC(=O)NC(C)C12CC3CC(CC(C(=O)O)(C3)C1)C2 (stereo not drawn),11.2%,-6.8%,0.6,0.0%,10.5,-0.7
CCN1CCN(Cc2nc3cc(NC(=O)COc4ccc([N+](=O)[O-])cc4)ccc3n2C)CC1,12.2%,17.7%,-0.1,0.7%,-11.7,x
COc1ccc2c(c1)sc(N)[n+]2Cc1cc(C)cc2cccnc12,0.7%,5.0%,7.5,0.5%,4.1,-1.2
Cc1nn(C)c2c1c(C(F)(F)F)cc(=O)n2CC(=O)N1CCCCC1C (stereo not drawn),x,x,1.0,3.8%,12.6,x
O=C(CN1C(=O)NC2(CCCCCC2)C1=O)Nc1ccc(Cl)cc1Cl,5.7%,-3.6%,1.7,-2.0%,7.8,x
CNC(=S)Nn1cnc2ccccc21,3.7%,18.7%,0.1,2.4%,-6.6,-0.9
O=C(CN1C(=O)NC2(CCCCC2)C1=O)NNC(=O)C1CC1,21.5%,6.2%,-0.2,-2.7%,-8.2,x
CCc1ccccc1NC(=O)CC1S/C(=N\c2nccs2)N(CC)C1=O (stereo not drawn),-9.4%,-54.3%[inhibitor],-0.6,-0.3%,18.9,6.7
Cc1ccc(-c2[nH]ncc2/C=C(\C#N)C(=O)NC2CCCCC2)cc1,u,-34.7%[inhibitor],-0.5,-0.4%,54.0,-2.8
Cc1cc2c(cc1S(=O)(=O)N1CCC(C)CC1)OCC(=O)N2,x,x,-0.8,-0.9%,14.9,x
COc1ccc(-c2csc(/C(C#N)=C/Nc3cc4oc5ccccc5c4cc3OC)n2)cc1,3.6%,-8.6%[15.4 µM],0.9,x,2.5,-0.1
Cc1cc2cc(CNC(=S)Nc3ccc(OC(F)F)cc3)ccc2n1C,8.7%,18.5%,0.2,-8.1%,-0.7,-13.1
